NPYLR7 ag – agonists of mosquito NPYLR7 receptor, primary screen, cell-based, Aedes aegypti, calcium fluorescence, mosquito biting behavior; AID 1259423, 2018; HEK293T NPYLR7/Galpha15, GCaMP6s calcium fluorescence; activation, % at 10 µM; Aedes aegypti neuropeptide Y-like receptor 7 (NPYLR7); 270,000 compounds, 0.15% hits; in the data active means activation above about 40%;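 further: 0% = vehicle and 100% = reference agonist at the receptor; some compounds past the cut are filed as inactive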
NPYLR7 ag max-min – recorded beside NPYLR7 ag, whose call it bears; activation, %; measured here: Max-Min RFU normalised activation; some inactives read as strong as hits;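 span of the calcium signal over five minutes; 0% = vehicle and 100% = native peptide agonist; compound fluorescence can raise it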
The depositor's hits bear a star; & = joins results of further samples. Some of the compounds tested (hit frequency here may not be typical).

Values run as follows: NPYLR7 ag	NPYLR7 ag max-min
1: O=C(CCn1ccnn1)NC1(c2ccc(Br)cc2)CC1
  10	10
2: COC(=O)Cc1cc(C2CCN(Cc3nc4ccccc4[nH]3)CC2)n[nH]1
  6	-4
3: NCC1Cc2cc(-c3ccc4occc4c3)cc(F)c2O1 (centres undefined)
  0	-1
4: CCCCN(CC(=O)N(CCc1c[nH]c2ccccc12)Cc1ccc(F)cc1)C(=O)COc1ccc(Cl)cc1
  -5	5
5: COCCN(Cc1ccc(OC)c(OS(=O)(=O)c2cccc(C(F)(F)F)c2)c1)C(=O)c1ccc(OC)cc1OC
  -12	-15
6: O=C(Nn1ccc2c(cnc3c(-c4ccccc4)cnn32)c1=O)c1ccncc1
  2	2
7: Cn1cc(CN2CCN(c3ccc(Cl)cn3)CC2)c(-c2ccc3c(c2)OCCO3)n1
  2	1
8: CCN(CCN1C(=O)C(C)SC1c1ccc(F)cc1F)C(=O)c1ccc(F)cc1 (centres undefined)
  13	24
9: COC(=O)CCC(=O)N1CCCC(N2CCN(c3ccc(OC)cc3)CC2)C1 (centres undefined)
  13	9
10: O=C(Nn1cnc2c(cnn2-c2ccccc2)c1=O)c1cccc(C(F)(F)F)c1
  1	-1
11: CCC1CN(CCS(C)(=O)=O)CCS1 (centres undefined)
  15	9
12: COc1cccc(Cn2c(=O)c(C(=O)NCCN3CCOCC3)nn(-c3ccc(C)c(Cl)c3)c2=O)c1
  2	10
13: O=C(NCc1ccncc1)c1csc(Nc2ccccc2)n1
  5	-2
14: CN1CCc2c(sc(NC(=O)c3ccco3)c2-c2nc3ccccc3s2)C1
  9	5
15: COCCN(Cc1cc(NC(=O)c2ccccc2Cl)ccc1N(C)C)C(=O)NC(C)(C)C
  1	15
16: COc1ccc(C(C)=O)cc1CN1C(=O)C(C)ON=C1Cc1ccccc1 (centres undefined)
  -4	-5
17: O=C(Nc1csc(N2CCCCC2)n1)C1CC1c1cccc(F)c1 (centres undefined)
  5	4
18: COc1ccc(NC(=O)c2cc3cc(OC)ccc3oc2=N)cc1
  5	2
19: COc1ccc(OCC(=O)NCc2ccc(C)cc2)c(C(=O)O)c1
  5	1
20: O=c1oc2ccc(Br)cc2cc1S(=O)(=O)c1ccccc1
  11	9

Single records, from the list above:
`O=C(NCc1ccncc1)c1csc(Nc2ccccc2)n1` in the list: NPYLR7 ag: 5; NPYLR7 ag max-min: -2
`COc1ccc(OCC(=O)NCc2ccc(C)cc2)c(C(=O)O)c1` in the list: NPYLR7 ag: 5; NPYLR7 ag max-min: 1

Remaining list, next part.
Values run as follows: NPYLR7 ag	NPYLR7 ag max-min
21: Cc1ccc2oc(-c3cccc(N)c3)nc2c1
  4	4
22: Cc1cc(C)cc(C(=O)n2sc(=O)c3ccccc32)c1
  4	-1
23: O=C1/C(=C\c2ccc3c(c2)OCO3)SC(=S)N1Cc1ccc(Cl)c(Cl)c1
  -9	-13
24: COc1ccc(OC)c(SCc2csc(-c3ccc(OC)c(OC)c3)n2)c1
  2	12
25: Cc1ccc(C)c(OCC(=O)N2CCC(=O)NCC2C)c1C (centres undefined)
  11	0
26: Cc1cc2c(nn1)CCc1c-2no[n+]1[O-]
  12	7
27: CC(=O)N1N=C(c2ccc(Br)cc2)CC1c1ccc(C)o1 (centres undefined)
  2	9
28: Cc1cccc(-n2c(C)nnc2S(=O)(=O)CC(=O)NCC2CC2)c1
  -2	-2
29: CCOC(=O)c1nn(-c2ccccc2)c(=O)c2c(NC(=O)c3c(F)cccc3Cl)scc12
  -1	-4
30: COC(=O)c1c(NC(=O)c2cccc([N+](=O)[O-])c2)sc2c1CCC2
  -1	-4
31: CC(Cn1cccn1)NC(=O)NC(C)c1nncn1C (centres undefined)
  4	3
32: Cc1cc2oc(=O)cc(CN3CCCCC3C)c2c(C)c1Cl (centres undefined)
  -3	4
33: COc1cccc(CNC(=O)C2CCN(C(=O)[C@@H]3CCCN3C(=O)Nc3ccc(Br)cc3Cl)CC2)c1
  23	21
34: COc1ccc(S(=O)(=O)N(CC(=O)NCCSCc2cccc(Cl)c2)c2ccc(C)cc2)cc1OC
  -21	-15
35: Fc1ccc(C=NNc2ncc(-c3ccccc3)s2)cc1
  7	6
36: O=C(NCCn1ncc2c(=O)n(Cc3cccc4ccccc34)cnc21)c1ccccc1
  -1	-9
37: Cc1nn(CC(=O)NCCN2CCOCC2)c(C)c1[N+](=O)[O-]
  -3	-8
38: CC(C)c1[nH]n(-c2cccc(F)c2)c(=O)c1-c1ccc(NC(=O)c2cccc(Br)c2)cc1
  2	12
39: O=C(c1ccccc1Cl)N1CCN(C(=O)C2CC2c2cccs2)CC1 (centres undefined)
  13	14
40: O=C(CCC1CCCN(C(=O)Cc2ccsc2)C1)NCc1ccccc1Cl (centres undefined)
  6	2
41: CCOC(=O)N1CCN(C(c2ccc(C)cc2)c2c(O)cc(C)n(Cc3ccco3)c2=O)CC1 (centres undefined)
  10	4
42: CCOc1ccc(Nc2nc(NCCC(C)C)nc3c2cnn3-c2ccccc2)cc1
  1	-1
43: CC(=O)Nc1ccc(SC(C)C(=O)NCC2COCCO2)cc1 (centres undefined)
  3	3
44: COCC(=O)N(Cc1cc(NC(=O)C2CC2)ccc1N(C)C)C1CCCCC1
  -11	-4
45: CC1CC(C)CN(S(=O)(=O)c2ccc(C(=O)N3c4ccccc4CC3C)cc2)C1 (centres undefined)
  0	10
46: FC(F)(F)c1cccc(/C=N\Nc2nc(N3CCCCC3)nc(N3CCOCC3)n2)c1
  8	3
47: O=[N+]([O-])c1ccc2[nH]c(O)c(N=Nc3c(Cl)cc(Cl)cc3Cl)c2c1
  -5	-11
48: CC(C)c1ccccc1OC1CC2CCC(C1)N2C(=O)c1ccc(CN(C)Cc2cccc3ccccc23)cc1 (centres undefined)
  10	2
49: C=CCSc1nc2c(cnn2CCO)c(=O)[nH]1
  1	-2
50: COc1ccc(C2=CC(c3ccc(C)o3)n3nnnc3N2)cc1OC (centres undefined)
  1&7	-1&9
51: c1ccc2sc(CSc3n[nH]c(CC4CCCC4)n3)nc2c1
  1	4
52: CCCn1nc(C(=O)NNC(=O)c2ccc(-c3ccccc3)cc2)c2ccccc2c1=O
  -6	-12
53: CC(C)=C(C)C(=O)O
  -3	-3
54: Cc1nc2ncccn2c1C(=O)NCC1(O)CCNC1 (centres undefined)
  5	4
55: CO[C@H]1CN(C(=O)C(c2ccccc2)c2ccccc2)[C@@H]2Cc3c([nH]c4ccccc34)[C@@H]1C2
  16	20
56: O=C1NC(=S)N/C1=C/c1cc([N+](=O)[O-])ccc1O
  1	-3
57: FC(F)(F)CCc1ccnc(NCCn2cccc2)n1
  -5	-7
58: COc1ccc(-c2c(C)nn3c(Nc4cccc(C)c4)cc(C)nc23)cc1OC
  -4	-7
59: O=C(Oc1coc(CSc2ncccn2)cc1=O)c1ccc(Br)cc1
  -8	-2
60: O=[N+]([O-])c1cc(C(F)(F)F)ccc1N/N=C\c1ccccc1O
  12	5
61: CC1(C)Cc2c(sc3c2c2ncnn2c2nnc(SCC(=O)NCc4ccccc4)n32)CO1
  4	-2
62: COCc1cc(C)nc(N/N=C\c2ccco2)c1C#N
  9	-6
63: COc1ccc(C(=O)N[C@@H]2CCCCC2NC(=O)C2CCCN(C(=O)c3ccc(Cl)c(Cl)c3)C2)cc1 (some centres undefined)
  9	8
64: CC(C)c1cc2c(=O)[nH]c(CN(Cc3ccco3)CC(O)c3ccccc3)nc2s1 (centres undefined)
  15	12
65: CCN(CC)CCNC(=O)c1c(C)[nH]c(/C=C2/C(=O)Nc3ccc(F)cc32)c1C
  60*	41*
66: COc1ccc(C(N)=O)cc1-c1ccc(F)c(CO)c1
  9	5
67: O=C(NC1CC1)C1CCCN(CCc2ccccc2Cl)C1 (centres undefined)
  13	9
68: CC(=O)c1cccc(OCC(=O)Nc2nnc(C)s2)c1
  8	4
69: COc1ccc(CN(Cc2ccc(F)cc2)C(=O)NC(C)C)cc1OS(=O)(=O)c1ccc(F)cc1
  26	15
70: O=c1cc(CSc2ncccn2)[nH]c2nc3ccccc3n12
  -10	-18
71: O=C(Cc1ccc(Oc2nc(Cc3ccccc3)ns2)cc1)N1CCN(c2cccc(Cl)c2)CC1
  12	18
72: COC(=O)c1ccoc1COc1cccc2c1N(C(=O)CC(NC(C)=O)c1ccc(C)cc1)CCC2 (centres undefined)
  1	7
73: COc1cc(C)sc1C(=O)N1CC(c2cccnc2)C1
  -2	-4
74: Cc1cc(C)nc(Sc2ncnc(N)c2[N+](=O)[O-])n1
  0	-3
75: COC(=O)c1cc(C2NC(=O)c3n[nH]c(C)c3N2)oc1C (centres undefined)
  -1	8
76: CN(Cc1ccccc1)c1ncccc1CNC(=O)C1CCCCN1C (centres undefined)
  -2	4
77: Cc1ccc(-c2c3c(n(CC(=O)O)c2C)C(=O)CCC3)cc1
  0	-3
78: COc1ccc(-c2noc(CN(C)Cc3cnccn3)n2)cc1
  8&7	0&-1
79: CCOc1ccccc1C1NC(=O)NC(C)=C1C(=O)OC (centres undefined)
  -1	-6
80: O=C(Cc1c(Cl)cccc1Cl)NC1(C(F)(F)F)CCOCC1
  10&-2	2&41

81: Cn1c(=O)[nH]c(=O)c2c1nc(N1CCCCCC1)n2CCCSc1nc2ccccc2o1
82: O=C(Nc1cccs1)N1CCn2cccc2C1c1cccs1 (centres undefined)
83: Cc1nn(Cc2ccccc2Cl)c(C)c1CN(C)C(=O)c1ccc[nH]1
84: O=C(Nc1nnc(SCc2ccccc2C(F)(F)F)s1)c1ccccc1F
85: O=C(CN(C(=O)c1ccc2c(c1)OCO2)C1CC1)N(CCc1c[nH]c2ccccc12)Cc1ccc(F)cc1
86: CN(C)C1CCN(c2ccc(N)nc2)CC1
87: COc1ccc(CCN2CCCC(CN(C)C(=O)CN3CCCC3=O)C2)cc1 (centres undefined)
88: CC1CC1C(=O)NC(C)C12CC3CC(CC(C3)C1)C2 (centres undefined)

| Compound | 81 | 82 | 83 | 84 | 85 | 86 | 87 | 88 |
| --- | --- | --- | --- | --- | --- | --- | --- | --- |
| NPYLR7 ag | -9 | 4 | 2 | 26 | 10 | 2 | 2 | 3 |
| NPYLR7 ag max-min | -9 | 2 | 2 | 18 | 8 | 1 | 0 | 0 |

Molecules listed so far with bromine:
1: O=C(CCn1ccnn1)NC1(c2ccc(Br)cc2)CC1
20: O=c1oc2ccc(Br)cc2cc1S(=O)(=O)c1ccccc1
27: CC(=O)N1N=C(c2ccc(Br)cc2)CC1c1ccc(C)o1 (centres undefined)
33: COc1cccc(CNC(=O)C2CCN(C(=O)[C@@H]3CCCN3C(=O)Nc3ccc(Br)cc3Cl)CC2)c1
38: CC(C)c1[nH]n(-c2cccc(F)c2)c(=O)c1-c1ccc(NC(=O)c2cccc(Br)c2)cc1
59: O=C(Oc1coc(CSc2ncccn2)cc1=O)c1ccc(Br)cc1

| Compound | 1 | 20 | 27 | 33 | 38 | 59 |
| --- | --- | --- | --- | --- | --- | --- |
| NPYLR7 ag | 10 | 11 | 2 | 23 | 2 | -8 |
| NPYLR7 ag max-min | 10 | 9 | 9 | 21 | 12 | -2 |

(cont.)
89: COCCCN=C(c1ccco1)n1c(=S)nc(-c2ccco2)n(CCCOC)c1=S
90: CCN(CC)C(=O)Oc1ccc2c(ccn2Cc2ccccc2Br)c1-c1ccc(F)cc1
91: Nc1ncnc(N(CCO)CCO)c1[N+](=O)[O-]
92: O=C(Nc1nc2ccccc2c(=O)[nH]1)c1cccc(Cl)c1Cl
93: COc1ccc2c(c1)OC[C@H]1c3cc4c(cc3O[C@@H]21)OCO4
94: Cc1[nH]cnc1-c1nnc(SCC(=O)O)n1-c1ccccc1C(F)(F)F
95: CCOc1ccc(CCNc2nccn(-c3cc(C)c(Cl)cc3OC)c2=O)cc1OCC
96: CCCCCCC(=O)N1CCN(c2cc(Oc3ccccc3OC)ncn2)CC1C (centres undefined)

| Compound | 89 | 90 | 91 | 92 | 93 | 94 | 95 | 96 |
| --- | --- | --- | --- | --- | --- | --- | --- | --- |
| NPYLR7 ag | -4 | 11 | -1 | 5 | 3 | 3 | 4 | 10 |
| NPYLR7 ag max-min | -5 | 2 | -5 | 2 | 1 | 1 | -5 | 7 |

97: Cc1nnsc1CN(C)C(=O)c1ccccc1NCC(=O)O
98: CC(=O)CC(=O)N1CCOCC1
99: O=C(Nc1ncc(Cc2cccc(Cl)c2Cl)s1)C1CCCO1 (centres undefined)
100: COc1ccc(CC(=O)Nc2ccc(-n3nc(OCC(C)C)nc3-c3ccc(C(F)(F)F)cc3)cc2)cc1
101: COc1ccc(C2CC(C(F)(F)F)n3ncc(C(=O)NC45CC6CC(CC(C6)C4)C5)c3N2)cc1 (centres undefined)
102: COCCN(Cc1ccc2c(c1)OCO2)Cc1ccc(C(O)(CC2CCC2)CC2CCC2)o1
103: O=C(C1CCCC1)N1CCCC(CO)(Cc2ccccc2)C1 (centres undefined)
104: CCn1c(SCc2ccc(C(=O)Nc3ccc(OC)cc3)cc2)nnc1-c1cccs1

| Compound | 97 | 98 | 99 | 100 | 101 | 102 | 103 | 104 |
| --- | --- | --- | --- | --- | --- | --- | --- | --- |
| NPYLR7 ag | 2 | 6 | -3 | -2 | -9 | 9 | -15 | -1 |
| NPYLR7 ag max-min | -2 | 6 | -8 | 1 | -11 | 11 | -19 | 4 |

105: CCCn1c2c(=O)n(C)c(=O)n(C)c2n2c(-c3ccc(OCc4ccccc4)cc3)nnc12
106: CCCc1cc(NCc2ccccn2)n2nc(C)c(-c3ccccc3)c2n1
107: OCC1CCN(C2CCCNC2)CC1 (centres undefined)
108: CCCNC(=O)NNC(=O)c1cccn(Cc2cccc(F)c2)c1=O
109: O=C(c1nccc2ccccc12)N1CCN(CC2CCCC2)CC1
110: CN1CCN(c2onc(-c3ccc(F)cc3)c2CN(Cc2ccccc2)C(=O)Nc2cccc(Cl)c2)CC1
111: Cc1ccc(N2C(=O)CSC2c2cccc(NC(=O)c3cccc(Br)c3)c2)cc1F (centres undefined)

| Compound | 105 | 106 | 107 | 108 | 109 | 110 | 111 |
| --- | --- | --- | --- | --- | --- | --- | --- |
| NPYLR7 ag | 8 | 3 | 1 | 3 | 126* | 16 | 5 |
| NPYLR7 ag max-min | 3 | 9 | 0 | -1 | 116* | 18 | 6 |
